# Compound activity as filed in PubChem BioAssay.
# PD-1 reverse act – activators reversing PD-1 mediated T-cell inhibition, primary screen, luminescence, primary human CD4 T cells, PD-L1 beads | CellTiter-Glo 96 h | activation, % (test concentration not listed) | 29,000 tested, under 10 active | AID 2316, 2010;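 active = replicate mean of 50% or more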;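 also: 0% = median vehicle wells and 100% = positive control; 100 nL library stock added to about 50 µL; numbers are from one replicate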
# YB-1 expr inh – inhibitors of YB-1 gene expression, primary screen, cell-based, fluorescence | U2OS, qRT-PCR YB-1 vs CDIP delta delta Cp, 16 h; active compounds read high; zero = DMSO, each unit about twofold | delta delta Cp (YB-1 minus CDIP) (no concentration beside the values) | 0.37% of 30,000 active | AID 434959, 2010;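 active = delta delta Cp rounded down to an integer at or above 3, about 3 SD of DMSO wells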;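 also: higher means less YB-1 transcript or more CDIP transcript relative to DMSO; stock transfer was 100 nL into about 100 µL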
# MITF inh – inhibitors of MITF, primary screen, MITF inhibitor project, cell-based, luminescence; TRPM1 promoter luciferase, 24 h; inhibition, % (concentration not given with the values); 0.28% of 37,000 active;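 active = most replicates at 85% or more, or half of them and the mean; inconclusive = half reach 85% but not the mean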;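 also: human melanocyte line stably carrying TRPM1 promoter luciferase reporter; 0% = vehicle wells and 100% = a positive control; the first replicate is given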
# Hedgehog inh – Hedgehog pathway signaling inhibitors, primary screen, luminescence, Shh-LIGHT2 cells, Gli-luciferase; Shh-LIGHT2 Gli-luciferase reporter, 30 h; inhibition, % (concentration not given with the values); 2.1% of 22,000 active; AID 2313, 2010;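 active = replicate mean of 65% or more; inconclusive = mean lower but half the replicates past it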;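 also: pathway switched on by Shh-conditioned medium diluted 1 in 25 in low serum; 100 nL library stock added to about 40 µL; 0% = median of neutral wells and 100% = positive control level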
# * = called active by the depositor; u = inconclusive; x = no result given. The list is partial; count on the stated rates, not on these rows.
SMILES,PD-1 reverse act,YB-1 expr inh,MITF inh,Hedgehog inh
COc1ccc(S(=O)(=O)Nc2ccc3c(c2)C(=O)N([C@@H](C)CO)C[C@H](C)[C@@H](CN(C)S(=O)(=O)c2ccccc2)O3)cc1,1.6,0.075,-6,0
COC(=O)C1=CO[C@@H](O[C@@H]2O[C@H](CO)[C@@H](O)[C@H](O)[C@H]2O)[C@H]2[C@]1(O)[C@H](O)C[C@]2(C)O,x,-0.65,x,-15
Nc1ncnc2c1ncn2C1CCCO1 (configuration not stated),6.4,-0.29,-4,-49
C[C@]12CCC3c4ccc(O)cc4CC[C@H]3C1CC[C@H]2O (some centres not stated),-2.2,0.38,13,5
C[C@H]1CN([C@@H](C)CO)C(=O)Cc2cc(NS(=O)(=O)c3ccc(F)cc3)ccc2O[C@H]1CN(C)Cc1ccc(Oc2ccccc2)cc1,-0.1,0.43,20,16
C[C@H]1CN([C@@H](C)CO)C(=O)c2cccc(NS(=O)(=O)c3cccs3)c2O[C@H]1CN(C)C(=O)NC1CCCCC1,-0.4,-0.24,10,-26
CNC[C@@H]1Oc2c(NS(=O)(=O)c3cn(C)cn3)cccc2C(=O)N([C@@H](C)CO)C[C@H]1C,x,0.15,-2,-32
C[C@H]1CN([C@@H](C)CO)C(=O)c2cc(NC(=O)Cc3ccccc3)ccc2O[C@@H]1CN(C)Cc1ccccc1,0.0,-0.022,6,-7
CC(C)NC(=O)N(C)C[C@@H]1Oc2c(NC(=O)Nc3ccc(F)cc3)cccc2C(=O)N([C@@H](C)CO)C[C@H]1C,-0.6,0.059,2,-30
C[C@@H]1CN([C@@H](C)CO)C(=O)c2cc(NS(C)(=O)=O)ccc2O[C@@H]1CN(C)C(=O)Nc1cccc2ccccc12,x,-0.035,3,x

# Entries of single compounds as entered above. Screens in order: PD-1 reverse act | YB-1 expr inh | MITF inh | Hedgehog inh
# CNC[C@@H]1Oc2c(NS(=O)(=O)c3cn(C)cn3)cccc2C(=O)N([C@@H](C)CO)C[C@H]1C is entered as x | 0.15 | -2 | -32
# COc1ccc(S(=O)(=O)Nc2ccc3c(c2)C(=O)N([C@@H](C)CO)C[C@H](C)[C@@H](CN(C)S(=O)(=O)c2ccccc2)O3)cc1 is entered as 1.6 | 0.075 | -6 | 0
# Nc1ncnc2c1ncn2C1CCCO1 (configuration not stated) is entered as 6.4 | -0.29 | -4 | -49

# Next part.
SMILES,PD-1 reverse act,YB-1 expr inh,MITF inh,Hedgehog inh
CC(NS(=O)(=O)c1ccc(Br)cc1)C(=O)Nc1cccc([N+](=O)[O-])c1 (configuration not stated),-0.2,x,16,x
CCOc1ccc2nc(SCC(=O)Nc3cccc(C)c3C)sc2c1,-1.0,x,-11,x
C[C@H](CO)N1C[C@H](C)[C@H](CN(C)Cc2ccc(Oc3ccccc3)cc2)Oc2ccc(NC(=O)C3CC3)cc2CC1=O,0.0,-0.21,6,7
N#Cc1cc2c(OCC(O)CN3CCN(C(c4ccccc4)c4ccccc4)CC3)cccc2[nH]1 (configuration not stated),x,-0.7,99*,103*
C=C[C@@]1(C)CCC2C(=CCC3[C@]2(C)CCC[C@@]3(C)C(=O)O)C1 (some centres not stated),-0.6,0.06,-12,4
C[C@@H]1CN([C@H](C)CO)C(=O)Cc2cc(NC(=O)C3CC3)ccc2O[C@@H]1CN(C)Cc1ccc(Cl)c(Cl)c1,-2.7,-0.23,9,30
Cc1noc(C)c1S(=O)(=O)N(C)C[C@H]1Oc2ccc(N(C)C)cc2CC(=O)N([C@H](C)CO)C[C@H]1C,x,-0.074,14,x
O=c1[nH]c(-c2ccccc2)nnc1/C=C(\O)c1cccs1,1.0,0.065,-16,-38
Cc1c(Br)c([N+](=O)[O-])nn1C(C)C(=O)Nc1ccccc1C(F)(F)F (configuration not stated),0.2,x,-14,x
CC1CCC2(C(=O)O)CCC3(C)C(=CCC4C5(C)C[C@@H](O)[C@@H](O)C(C)(CO)C5CCC43C)C2C1(C)O (some centres not stated),-0.5,0.33,-27,-6

# Random excerpt: 2 compounds from above, in no set order.
SMILES,PD-1 reverse act,YB-1 expr inh,MITF inh,Hedgehog inh
CCOc1ccc2nc(SCC(=O)Nc3cccc(C)c3C)sc2c1,-1.0,x,-11,x
O=c1[nH]c(-c2ccccc2)nnc1/C=C(\O)c1cccs1,1.0,0.065,-16,-38

# More results.
SMILES,PD-1 reverse act,YB-1 expr inh,MITF inh,Hedgehog inh
C[C@H]1CN([C@@H](C)CO)C(=O)Cc2cc(NC(=O)C3CC3)ccc2O[C@@H]1CN(C)CC1CCCCC1,-0.2,0.088,-10,-2
O=C(CSc1ncnc2sc(-c3ccccc3)cc12)Nc1ccccc1C(F)(F)F,-3.3,x,2,x
C[C@@H]1CN([C@H](C)CO)C(=O)Cc2cc(NC(=O)Nc3cccc4ccccc34)ccc2O[C@@H]1CN(C)CC1CCCCC1,-3.4,0.3,16,-3
COc1ccc(C(=O)N(CCCCN2C(=O)c3ccccc3C2=O)c2ccc(C)cc2)cc1,-1.2,-0.37,-22,x
CCOC(=O)c1c(NC(=O)c2nc3ncccn3n2)sc2c1CCC(C)C2 (configuration not stated),-0.6,x,-25,x
C[C@@H]1CCCCO[C@@H](CN(C)Cc2ccc(C(F)(F)F)cc2)[C@@H](C)CN([C@H](C)CO)C(=O)c2cc(NC(=O)c3ccncc3)ccc2O1,x,0.21,1,-9
C[C@H]1CN([C@@H](C)CO)C(=O)c2cccc(NC(=O)c3cnccn3)c2O[C@@H]1CN(C)Cc1ccc(C(=O)Nc2ccccc2N)cc1,-2.3,-0.18,8,x
C[C@@H]1CN([C@@H](C)CO)C(=O)c2cc(NC(=O)C3CC3)ccc2O[C@H]1CN(C)Cc1ccc2c(c1)OCO2,1.9,0.18,5,x
COc1ccc(CN(C)C[C@H]2Oc3ccc(NC(=O)C4CCCCC4)cc3C(=O)N([C@H](C)CO)C[C@H]2C)cc1,x,0.1,0,3
c1ccc(-c2cc3c(NCC4CCCO4)ncnc3s2)cc1 (configuration not stated),0.7,x,48,x

# For convenience, some entries already given:
SMILES,PD-1 reverse act,YB-1 expr inh,MITF inh,Hedgehog inh
C[C@@H]1CN([C@@H](C)CO)C(=O)c2cc(NC(=O)C3CC3)ccc2O[C@H]1CN(C)Cc1ccc2c(c1)OCO2,1.9,0.18,5,x
COc1ccc(CN(C)C[C@H]2Oc3ccc(NC(=O)C4CCCCC4)cc3C(=O)N([C@H](C)CO)C[C@H]2C)cc1,x,0.1,0,3
c1ccc(-c2cc3c(NCC4CCCO4)ncnc3s2)cc1 (configuration not stated),0.7,x,48,x

# (more compounds)
SMILES,PD-1 reverse act,YB-1 expr inh,MITF inh,Hedgehog inh
CC(C)NC(=O)Nc1ccc2c(c1)C(=O)N([C@@H](C)CO)C[C@@H](C)[C@@H](CN(C)CC1CCCCC1)O2,2.9,-0.25,1,x
C[C@H]1CN([C@@H](C)CO)C(=O)c2cc(NC(=O)c3ccncc3)ccc2O[C@@H]1CN(C)C(=O)Nc1cccc2ccccc12,2.0,0.53,8,8
COc1ccc(S(=O)(=O)Nc2cccc3c2O[C@@H](CN(C)Cc2ccc(Oc4ccccc4)cc2)[C@@H](C)CN([C@H](C)CO)C3=O)cc1,-1.5,-0.14,0,-17
CC1=C(C(=O)Nc2ccccc2Cl)C(c2cc(Br)ccc2OCC(N)=O)NC(=S)N1 (configuration not stated),-2.6,x,-5,x
COc1ccc(S(=O)(=O)N(C)CC(=O)Nc2ccc(Br)cc2F)cc1C,0.0,x,31,x
COc1ccc(C(=O)Nc2cccc(C(=O)NCc3ccco3)c2)cc1,-0.4,x,-35,x
CC(=O)N1CCc2cc(NC(=S)NC3CCCCCC3)ccc21,-2.6,0.078,-43,-21
CN(CC(=O)Nc1ccccc1F)S(=O)(=O)c1ccc2ccccc2c1,1.7,x,-4,x
C[C@H](CO)N1C[C@H](C)[C@@H](CN(C)Cc2ccncc2)Oc2c(NC(=O)c3ccc(-c4nccs4)cc3)cccc2C1=O,-2.1,-0.098,-6,-11
COc1ccc(NC(=O)N(C)C[C@@H]2Oc3ccc(NC(=O)Nc4ccccc4)cc3CC(=O)N([C@H](C)CO)C[C@H]2C)cc1,0.0,0.042,9,65
CCOc1ccc(NC(=O)Cn2cnc3sc(C(N)=O)c(C)c3c2=O)cc1,1.5,x,-21,x
C[C@H](CO)N1C[C@H](C)[C@@H](CN(C)Cc2ccc(Oc3ccccc3)cc2)Oc2c(NC(=O)C3CC3)cccc2C1=O,-2.2,-0.089,26,26
C[C@@H]1CN([C@@H](C)CO)C(=O)Cc2cc(NC(=O)C3CCCCC3)ccc2O[C@@H]1CN(C)C,1.9,0.37,-8,20
C[C@H](CO)N1C[C@H](C)[C@H](CN(C)S(=O)(=O)c2ccccc2)Oc2ccc(NC(=O)Nc3ccccc3)cc2C1=O,5.3,0.38,-24,x
C[C@@H]1CN([C@H](C)CO)C(=O)c2cccc(NS(=O)(=O)c3ccc(F)cc3)c2O[C@H]1CN(C)CC1CC1,1.7,-0.1,0,-7
C[C@@H]1CN([C@H](C)CO)C(=O)c2cccc(NC(=O)c3cnccn3)c2O[C@H]1CN(C)S(=O)(=O)c1ccc(Cl)cc1,1.9,-0.21,-5,4
C[C@@H]1CN([C@@H](C)CO)C(=O)c2cc(NC(=O)C3CC3)ccc2O[C@@H]1CN(C)Cc1ccccc1,2.2,-0.022,-2,4
C[C@H]1CN([C@@H](C)CO)C(=O)Cc2cc(NC(=O)CCC(F)(F)F)ccc2O[C@@H]1CN(C)Cc1ccc(-c2ccccc2)cc1,x,0.13,32,7
Cc1noc(C)c1S(=O)(=O)Nc1cccc2c1O[C@@H](CN(C)Cc1ccc(Cl)c(Cl)c1)[C@@H](C)CN([C@H](C)CO)C2=O,-1.1,-0.089,-11,7
Cc1nc2c(o1)N(c1ccccc1)C(N)=C(C#N)C2c1c(Cl)nn(-c2ccccc2)c1C (configuration not stated),-0.9,-0.43,16,23
CC(=O)N(c1ccc2oc3c(c2c1)CCCC3)S(=O)(=O)c1cccc2cccnc12,-1.8,x,20,x
C[C@H](CO)N1C[C@H](C)[C@H](CN(C)C)Oc2ccc(N(C)C)cc2C1=O,1.9,-0.25,-6,-27
O=C(NC(Cc1cc(=O)[nH]c2ccccc12)C(=O)O)c1ccc(Cl)cc1 (configuration not stated),x,0.11,12,-7
COc1ccc(S(=O)(=O)N(C)C[C@H]2Oc3ccc(NS(=O)(=O)c4ccccc4)cc3CC(=O)N([C@H](C)CO)C[C@H]2C)cc1,-3.8,-0.27,-24,14
COc1ccc(NC(=O)Nc2cccc3c2O[C@@H](CN(C)C(=O)Nc2ccc(C(F)(F)F)cc2)[C@@H](C)CN([C@@H](C)CO)C3=O)cc1,x,-0.26,-14,-28
COc1ccc(NC(=O)N(C)C[C@H]2Oc3ccc(NC(=O)NC(C)C)cc3CC(=O)N([C@H](C)CO)C[C@H]2C)cc1,x,-0.043,-4,-35
CC(=O)Nc1ccc(NC(=O)CN(c2cc(C(F)(F)F)ccc2Cl)S(C)(=O)=O)cc1,0.8,x,-8,x
C[C@@H]1CN([C@@H](C)CO)C(=O)c2cccc(NC(=O)C3CCOCC3)c2O[C@H]1CN(C)Cc1ccc(-c2ccccc2)cc1,x,-0.2,30,22
CC(=O)Nc1ccccc1NC(=O)COc1cc(C)c(Br)c(C)c1,1.1,x,-4,x
Cc1ccc(-c2nc3ccccc3[nH]2)cc1NC(=O)COc1ccc(C(C)C)cc1,0.2,x,-79,x
COc1ccc(S(=O)(=O)N(C)C[C@H]2Oc3ccc(NC(=O)Nc4ccc(C(F)(F)F)cc4)cc3CC(=O)N([C@@H](C)CO)C[C@@H]2C)cc1,0.0,-0.48,1,3
COc1ccc(NC(=O)Nc2cccc3c2O[C@@H](CN(C)C(=O)NC2CCCCC2)[C@H](C)CN([C@H](C)CO)C3=O)cc1,0.3,0.38,3,-19
COc1ccc(CN(C)C[C@@H]2Oc3ccc(NC(=O)C4CCCCC4)cc3C(=O)N([C@@H](C)CO)C[C@@H]2C)cc1,-0.8,-0.24,2,38
COc1cc(C(=O)Nc2cc(-c3nc4ncccc4o3)ccc2C)ccc1OCc1ccc(Cl)cc1,-11,x,u,x
Cc1nc2cc(NC(=O)c3ccc(N4C(=O)CCC4=O)cc3)ccc2s1,-0.7,-0.13,-6,x
O=C(O)CCN1C(=O)c2ccc(NC(=O)c3cccs3)cc2C1=O,0.9,x,-11,x
Cc1ccc(S(=O)(=O)NCC(=O)Nc2ccc(I)cc2)cc1,-1.3,x,20,x
Cc1ccc(S(=O)(=O)Nc2ccc3c(c2)C(=O)N([C@H](C)CO)C[C@H](C)[C@H](CN(C)Cc2ccc(C(F)(F)F)cc2)OCCCC[C@@H](C)O3)cc1,-7.2,0.19,13,-8
Cc1ccc(S(=O)(=O)Nc2ccc3c(c2)CC(=O)N([C@H](C)CO)C[C@@H](C)[C@H](CN(C)Cc2ccc(C(=O)O)cc2)O3)cc1,3.2,0.28,-1,-8
Cc1ccc(S(=O)(=O)Nc2ccc3c(c2)CC(=O)N([C@@H](C)CO)C[C@H](C)[C@@H](CN(C)Cc2ccc(C(F)(F)F)cc2)O3)cc1,-0.5,-0.3,23,69*
Cc1noc(C)c1NC(=O)Nc1ccc2c(c1)CC(=O)N([C@@H](C)CO)C[C@H](C)[C@@H](CN(C)CC1CCCCC1)O2,0.3,-0.48,12,-49
